HSD17B inh = inhibitors of human HSD17B10 dehydrogenase; 75,000 compounds, 7.6% hits; recombinant HSD17B10, NADH fluorescence kinetic; many of its hits are not listed in these tables; AID 893; Q99714; Potency, µM (doses to about 57.1 µM), without a hit: at the top dose activity change, negative = inhibition, most hits filed as inhibitors; active = well fitted inhibition curve with a large enough effect; inconclusive = small, poorly fitted or top-dose-only effect; inactive = no such curve, though single readings can be large or run the other way;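 also: the protocol describes HADH2 (HSD17B10) and not the HSD17B4 of the title; nearly all actives have a fitted effect of over 70% in size; most hits overshoot -100% by far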
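Activity followed as NADH fluorescence increase (ex 360, em 450 nm) every 30 seconds for 4 min, using final 90 uM beta-hydroxybutyryl CoA and 1 mM NAD+. Recombinant His-tagged enzyme, 20 nM, pH 9.0 Tris buffer, 15 min compound preincubation.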
An asterisk follows results filed as active; ? = inconclusive; [ ] = remark or other dose. % is scaled to controls: 0 for no effect and ±100 for the full control effect; potency is read from the fitted curve at half-maximal effect.

structure | HSD17B inh
O=c1cc(NCc2ccco2)[nH]c(=O)n1-c1ccc(Br)cc1 | -14%
CC(=O)N1CCc2cc(S(=O)(=O)NCCC(=O)NCCc3ccccc3)ccc21 | 3%
c1ccc(CNc2ncnc3ccc(-c4cccnc4)cc23)cc1 | ?
CCc1ccc2c(c1)N(C[C@H](C)CN(C)C)c1ccccc1S2 | -19%[11.4 µM]
Cc1cccc(NC(=O)c2cc(NC(=O)C3CCCCC3C(=O)O)ccc2N2CCCCC2)c1 (stereo not drawn) | -10%
CSC1=C(C#N)C(c2ccc(C)cc2)C2=C(CCCC2=O)N1 (stereo not drawn) | 6%
COc1ccccc1S(=O)Cc1ccc(C(=O)NCc2ccccc2Cl)o1 (stereo not drawn) | 0%
CN(C)CC(=O)c1ccc(-c2ccccc2)cc1 | -4%
CCn1c(=O)c(C(=O)Nc2nc3ccccc3[nH]2)c(O)c2ccccc21 | 6%
Cc1ccc(-c2nc(-c3ccccn3)no2)cc1Cl | -1%
COc1ccc(CCNC(=O)CSc2nc3c(c(=O)n(C)c(=O)n3C)n2C(C)C)cc1OC | 3%
Cn1c(=O)c2cc(S(=O)(=O)NCCC(=O)Nc3ccccc3F)ccc2n(C)c1=O | -3%

(cont.)
structure | HSD17B inh
CC1CCCCN1S(=O)(=O)c1ccc2c(c1)oc(=O)n2CC(=O)O (stereo not drawn) | -17%
O=C(NCc1ccco1)C1CC(=O)N(c2ccc(O)cc2)C1 (stereo not drawn) | 2%
O=C(CSc1nnc(-c2cccnc2)n1-c1ccccc1)Nc1ccccn1 | 3%
CCC(C)c1ccc(O)c(NC(=O)c2ncn[nH]2)c1 (stereo not drawn) | -2%
COCCn1c(SCC#N)nnc1-c1ccc2c(c1)OCO2 | 1%
COc1ccc(C(=O)N2CCN(C(=O)c3ccco3)CC2)cc1OC | -2%
O=c1[nH]c(=S)c2c(n1-c1ccccc1)CCC2 | -9%
O=c1c2ccccc2nnn1CSc1nnc(-c2ccc3c(c2)OCO3)o1 | 15%
CCn1c(SCC(=O)N2c3ccccc3CCc3ccccc32)nc2c1c(=O)n(C)c(=O)n2C | 3%
CCOc1cc(S(=O)(=O)N2CCOCC2)ccc1F | -1%
CC1CCCCN1C(=O)COc1ccc(NC(=O)c2ccco2)cc1 (stereo not drawn) | 12%
Cc1cc(=O)c2n(Cc3ccccc3Cl)nc[n+]2[nH]1 | 1%

More results:
structure | HSD17B inh
CS(=O)(=O)Nc1cccc(-c2nc(Nc3ccncc3)c3ccccc3n2)c1 | -13%
CC(=O)N1c2ccccc2C(C)CC12CCCCC2 (stereo not drawn) | -1%
CN1CCN(CCCNC(=O)c2ccc(CSCc3cccc(Cl)c3)o2)CC1 | 2%
Cc1ccc(Oc2ccc(OCC(=O)NC(C)C(=O)O)cc2)cc1 (stereo not drawn) | 2%
Cc1cc(C(F)(F)F)n2ncc(C(=O)O)c2n1 | 2%
CSCC[C@@H](C(=O)O)N(C)C | 6%[11.4 µM]
COC(=O)c1ccc(C2c3c(oc4cc(C)c(C)cc4c3=O)C(=O)N2CCCN(C)C)cc1 (stereo not drawn) | -4%
CC(C(=O)NC1=NCCS1)N1C(=O)C2CC=CCC2C1=O (stereo not drawn) | 1%
CCOP(=O)(c1ccc(N(C)C)cc1)C(O)c1cc(OC)c(OC)c(OC)c1 (stereo not drawn) | 2%
CCOc1cccc(C(=O)Nc2cccc(-c3nc4ncccc4o3)c2C)c1 | 16%
CC(=O)c1cccc(NC2c3ccccc3C(=O)N2Cc2ccc3c(c2)OCO3)c1 (stereo not drawn) | -2%
CC(=O)N1CCN(c2ccc(NCc3ccc(C(C)C)cc3)cc2)CC1 | -14%

(cont.)
structure | HSD17B inh
COc1cc2c(cc1OC)-c1nnc(C)n1C1(CCCC1)C2 | 0%
CC1(C)Oc2ccc3ccc(=O)oc3c2-c2cnoc21 | ?
OC(CN1CCOCC1)CN1CCOCC1 | 9%
Cn1c(=O)c2c(nc(SCCCO)n2Cc2ccccc2Cl)n(C)c1=O | 1%
Clc1ccc(OCc2nnc3n2N=C(c2ccc4c(c2)OCCO4)CS3)c(Cl)c1 | -5%
COc1ccc2c(c1)Sc1ccccc1N2CCN(C)C | -19%
CCSC(C)CC1C/C(=N/O)c2c(CC)noc2C1 (stereo not drawn) | 0%
COc1ccc(C)cc1NCc1cccc(OC)c1OC | -4%
Cc1ccc(-c2nc(NC(=O)CSc3nnc4scc(-c5ccccc5)n34)ns2)cc1 | -25%
CCCN(Cc1ccccc1)C(=O)Nc1ccc2c(c1)nnn2C | ?
COC(=O)Cc1[nH]nc2c1C(c1c[nH]c3ccccc13)C(C#N)=C(N)O2 (stereo not drawn) | ?
O=C(Cc1ccccn1)Nc1ccccc1 | 6%

Exported field by field: 4 of the compounds above.
> Cc1ccc(-c2nc(NC(=O)CSc3nnc4scc(-c5ccccc5)n34)ns2)cc1
  HSD17B inh = -25%

> CCCN(Cc1ccccc1)C(=O)Nc1ccc2c(c1)nnn2C
  HSD17B inh = ?

> COC(=O)Cc1[nH]nc2c1C(c1c[nH]c3ccccc13)C(C#N)=C(N)O2 (stereo not drawn)
  HSD17B inh = ?

> O=C(Cc1ccccn1)Nc1ccccc1
  HSD17B inh = 6%

The list goes on.
structure | HSD17B inh
COc1ccc(NC2CS(=O)(=O)CC2OC(=O)c2ccc(F)cc2)cc1 (stereo not drawn) | 10%
CC(C)C12CN3CC(C(C)C)(CN(C1)C3c1ccccc1O)C2=O (stereo not drawn) | -2%
NS(=O)(=O)c1ccc(CCNC(=O)c2ccccc2F)cc1 | 2%
CC(C)Cc1cc(C(=O)NCCCN2CCOCC2)no1 | 2%
COc1ccccc1N1CCN(CC(=O)c2c(C)[nH]c3cc(C)ccc23)CC1 | -5%
O=C(c1ccc(Cc2nc3ccccc3[nH]2)cc1)N1CCCCC1 | 2%
O=c1c2c([nH]c3ccc(Br)cc13)CCCC2 | 2%
CN1CC(=O)N/C1=N/C(=O)Nc1cccc(Cl)c1 | -6%
O=C(NCc1ccc2c(c1)OCO2)C1CCC(CNc2c(N3CCCCC3)c(=O)c2=O)CC1 (stereo not drawn) | 6%
O=C(c1ccccc1F)N(Cc1ccc(F)cc1)C1CCS(=O)(=O)C1 (stereo not drawn) | 7%
CCOC(=O)C1CCN(C(=O)CN(c2ccc(OC)c(OC)c2)S(=O)(=O)c2ccccc2)CC1 | 0%
O=C(CSc1nnnn1-c1ccccc1Cl)Nc1ccc2c(c1)OCCO2 | -6%

Other results.
structure | HSD17B inh
N/C(=N\O)c1cn([C@@H]2O[C@@H](CO)[C@H](O)[C@@H]2O)c2ncnc(NO)c12 | 3%[11.4 µM]
CC(=O)Nc1ccc(C(=O)n2nc(C)cc2C)cc1 | 2%
O=C1C(C=NCc2cccnc2)=C(O)c2ccccc21 | -4%
c1ccc(C2=Nn3c(nnc3-c3cccnc3)SC2)cc1 | 8%
COC(=O)c1[nH]c2cccc(Cl)c2c1NC(=O)CN1CCN(CCO)CC1 | 25µM*
CN(C)C(CNC(=O)CN1C(=O)NC2(CCc3ccccc32)C1=O)c1ccco1 (stereo not drawn) | -8%
CCn1cc(C2=NOC(C(=O)Nc3cccc(C(C)=O)c3)C2)c(C)n1 (stereo not drawn) | -3%
COc1ccc(C2C(C(=O)NCCN(C)C)c3ccccc3C(=O)N2C)cc1OC (stereo not drawn) | 7%
CN(Cc1cnn(C)c1)C(=O)c1cc2ccccc2oc1=O | -6%
Cc1cc(F)c(F)c(C(=O)N2CCN(C)CC2)c1Cl | -1%
Cc1cccc(CCNC(=O)C2CCCN(S(=O)(=O)c3cnc[nH]3)C2)c1 (stereo not drawn) | 13%
CCN=C1SC(CC(=O)Nc2sc(C)c(C)c2C(=O)OC)C(=O)N1CC (stereo not drawn) | 4%

Overlap with the part before: three compounds, followed by the next part.
structure | HSD17B inh
Cc1cc(F)c(F)c(C(=O)N2CCN(C)CC2)c1Cl | -1%
Cc1cccc(CCNC(=O)C2CCCN(S(=O)(=O)c3cnc[nH]3)C2)c1 (stereo not drawn) | 13%
CCN=C1SC(CC(=O)Nc2sc(C)c(C)c2C(=O)OC)C(=O)N1CC (stereo not drawn) | 4%
COc1ccc(CCNc2oc(COc3ccccc3F)nc2C#N)cc1OC | -7%
Cc1ccc2nsnc2c1S(=O)(=O)NCc1cccnc1 | -2%
c1cnc(N2CCN(c3ncnc4c3oc3ccccc34)CC2)nc1 | -7%
CCOC(=O)N1CCN(c2c(NCCN3CCCCC3CC)c(=O)c2=O)CC1 (stereo not drawn) | 7%
Cc1nc2scc(-c3ccccc3)c2c(=O)o1 | -4%
CCOC(=O)Cc1nnc(NC(=O)c2ccccc2OC)s1 | -7%
COCC(=O)NCCc1nc2ccccc2[nH]1 | 8%
Cc1noc(C)c1C(=O)Nc1ccc2c(c1)CCC2 | 3%
Cc1c(NC(=O)C(C)Oc2ncnc3ccccc23)c(=O)n(-c2ccccc2)n1C (stereo not drawn) | 5%
CC(C)N(Cc1nc(-c2ccccc2)no1)C(=O)CCCN1C(=O)c2ccccc2C1=O | 5%
CO[C@H]1COC(=O)[C@@H](C)COC(=O)[C@@H](Cc2ccccc2)NC(=O)C/C=C\[C@H]1C | 4%[11.4 µM]
COC(=O)C/C=C\[C@@H](C)[C@@H](/C=N\OC[C@@H](O)COCc1ccco1)OC | 6%[11.4 µM]

Continuation.
structure | HSD17B inh
C=CCn1c(COc2ccc(Cl)cc2)nnc1SCC(=O)N1CC(=O)Nc2ccccc21 | 3%
Cc1ccc2nc(SC(C)C(=O)N3CCCC3)[nH]c2c1 (stereo not drawn) | 6%
Cc1ccc(-c2nnn(CC(=O)N(c3ccccc3)C(C(=O)NC3CCCC3)c3ccco3)n2)o1 (stereo not drawn) | 3%
Cc1csc2ncc(C(=O)NCc3ccccc3Cl)c(=O)n12 | 32µM*
Cc1cc(N(C)C)c(C#N)c(=O)[nH]1 | 7%
C/C=C(\CS(=O)(=O)c1ccccc1)S(=O)(=O)c1ccccc1 | ?
O=C(C1CCCN(S(=O)(=O)c2cccc3cccnc23)C1)N1CCN(c2ccc(F)cc2)CC1 (stereo not drawn) | -2%
c1ccc(-c2nc3nonc3nc2-c2ccccc2)cc1 | -5%
COc1ccc(Cl)cc1N1CC(C(=O)Nc2nccs2)CC1=O (stereo not drawn) | -4%
COC(=O)Cn1cnc(=O)c(C#N)c1/C=C/N(C)C | -1%
c1ccc2c(c1)oc1c(NCCCN3CCOCC3)ncnc12 | 8%
O=C(Nc1ccc(C(=O)N2CCOCC2)cc1)c1cccs1 | -7%

(more compounds)
structure | HSD17B inh
CCOC(=O)C1CCN(C(c2cc3cc(C)cc(C)c3[nH]c2=O)c2nnnn2C2CCCCC2)CC1 (stereo not drawn) | -5%
CCCc1nnc(SCc2ccc(OC)cc2)n1N | 32µM*
COc1cc(C(=O)Nc2ccc(-c3nc4cc(C)ccc4o3)c(O)c2)cc(OC)c1OC | 25µM*
O=C(O)CCc1ccc(-c2ccccc2)n1-c1cccc(O)c1 | 32µM*
COCCNC(=O)CN(C(=O)CCC(=O)Nc1cc(C)on1)c1ccc(C)cc1C | 10%
c1cc2c(cc1C1CCCCC1)c1c3n2CCN[C@H]3CCC1 | -2%
CC(C)N(CCNC(=O)c1ccc(Cc2nc3ccccc3[nH]2)cc1)C(C)C | -9%
CCOCCOC(=O)C1=C(C)NC2=C(C(=O)CC(c3cccs3)C2)C1c1ccsc1 (stereo not drawn) | ?
CCOC(=O)N1CCN(C(=O)c2ccc3c(=O)n(CCC4=CCCCC4)c(=S)[nH]c3c2)CC1 | -4%
CC(=O)OCCNC(=O)c1cc2ccccc2oc1=O | 32µM*
C[C@@H](C(=O)NCC1CC1)[C@H]1C[C@]1(C)[C@H](NC(=O)OCc1ccccc1)c1ccccc1 | -3%
O=C(CSc1ccccc1)Nc1ccncc1 | -18%

New compounds follow
structure | HSD17B inh
COc1ccc(C(=O)n2nc(C)cc2C)cc1OC | -5%
Cc1nc2c(s1)sc1ccccc12 | -11%
CCOc1cccc2cc(C(=O)N3CCc4ccccc43)c(=O)oc12 | -5%
CN(C(=O)c1ccno1)c1nnc(-c2ccccn2)s1 | 25µM*
CCOC(=O)CNC(=O)Cn1c(C)cc2ccccc2c1=O | ?
CC(=O)C1=C(C)Nc2ncnn2C1c1ccc(Cl)cc1 (stereo not drawn) | -1%
O=C(c1cncc(Br)c1)N1CCN(c2ccc(N3CCOCC3)nn2)CC1 | 32µM*
COc1ccc(C(=O)CSc2nc3nc(C)cc(C)n3n2)cc1OC | 6%
COc1ccc(NC(=O)N2CCCC2)cc1OC | 1%
Cc1onc(-c2ccccc2)c1C(=O)Nc1cccc(OC(C)C)c1 | 4%
COCCCN1C(=O)C(=O)/C(=C(/O)c2ccc(OCC(C)C)cc2)C1c1cccnc1 (stereo not drawn) | 16%
CCNc1ncc2nc(CCc3ccccc3)c(=O)n(C[C@H]3CCCO3)c2n1 | 10µM*

The results go on.
structure | HSD17B inh
Cc1cc(NC(=O)CSc2nnc(-c3ccc4c(c3)OCCO4)o2)no1 | 1%
Cc1nnc(SC(=O)N2c3ccccc3Sc3ccccc32)s1 | 3%
O=C(O)c1ccc([N+](=O)[O-])cc1 | 4%
CCCC(NS(=O)(=O)c1ccc(Br)cc1)C(=O)O (stereo not drawn) | 1%
CC(C)N(C=O)C1(C(=O)NC2CCCCC2)CCCCC1 | 11%
ON=C1/C(=N\O)CC2(C/C1=N/O)OCCO2 | 5%
O=C(c1ccncc1)N1CCC[C@@]2(CCN(c3cccc(-c4ccccc4)c3)C2)C1 | -14%

Screening results: PubChem BioAssay, National Center for Advancing Translational Sciences (NCATS)

The list is partial. The share of hits here may be higher or lower than overall.
